# Assay outcomes (PubChem BioAssay)
# NOMO-1 viab – STK33 inhibitor candidate reducing NOMO-1 cell viability. NOMO-1 AML viability, CellTiter-Glo luminescence, 72 h. hit rate 7.5% among 37,000. AID 2330. inhibition, % (no concentration beside the values);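 active = most replicates above 80%; inconclusive = exactly half above 80%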;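 note: wells of about 30 µL received 25 nL stock; 0% = median of vehicle wells and 100% = reference inhibitor level; the first replicate is given; inactives centre near 10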
# Starred values were filed as active, the others as inactive; ? = inconclusive. Not all compounds are listed (hit frequency here may not be typical).
structure | NOMO-1 viab
Cc1ccc(S(=O)(=O)N(C)C[C@@H]2OCCCC[C@@H](C)Oc3ccc(NS(=O)(=O)c4ccccc4)cc3C(=O)N([C@H](C)CO)C[C@@H]2C)cc1 | ?
CCC(=O)c1ccccc1OCCSc1nc(C)cc(=O)[nH]1 | -8
Cc1cccc(NC(=O)CC2OCCN(Cc3ccccc3)C2=O)c1 (stereo unspecified) | 23
Cc1nc([N+](=O)[O-])c(Sc2nc3ccccc3[nH]2)n1Cc1ccccc1 | 101*
C[C@@H]1CN([C@@H](C)CO)C(=O)Cc2cc(NC(=O)CCC(F)(F)F)ccc2O[C@@H]1CN(C)C(=O)NC1CCCCC1 | -10
C[C@H]1CN([C@@H](C)CO)C(=O)Cc2cc(NS(=O)(=O)c3cccs3)ccc2O[C@H]1CN(C)C(=O)Nc1ccc2c(c1)OCO2 | 21
CCc1ccccc1NC(=O)C(C)n1nc([N+](=O)[O-])c(Br)c1C (stereo unspecified) | 40
COc1ccc(OC)c(-n2c(=S)[nH]c3cc(C(=O)N4CCC(C(N)=O)CC4)ccc3c2=O)c1 | 6

# 4 entries from above in a different format:
C[C@H]1CN([C@@H](C)CO)C(=O)Cc2cc(NS(=O)(=O)c3cccs3)ccc2O[C@H]1CN(C)C(=O)Nc1ccc2c(c1)OCO2
  NOMO-1 viab = 21
Cc1cccc(NC(=O)CC2OCCN(Cc3ccccc3)C2=O)c1 (stereo unspecified)
  NOMO-1 viab = 23
CCc1ccccc1NC(=O)C(C)n1nc([N+](=O)[O-])c(Br)c1C (stereo unspecified)
  NOMO-1 viab = 40
C[C@@H]1CN([C@@H](C)CO)C(=O)Cc2cc(NC(=O)CCC(F)(F)F)ccc2O[C@@H]1CN(C)C(=O)NC1CCCCC1
  NOMO-1 viab = -10

# New compounds follow:
structure | NOMO-1 viab
Cc1ccc(S(=O)(=O)Nc2ccc3c(c2)CC(=O)N([C@H](C)CO)C[C@@H](C)[C@H](CN(C)Cc2ccccc2)O3)cc1 | 5
CC(C)(C)C(=O)Cn1nnc(N2CCOCC2)n1 | 16
Cc1ccc(NC(=O)COc2ccc(Cl)cc2)c([N+](=O)[O-])c1 | 13
Cc1ccc(S(=O)(=O)Nc2ccc3c(c2)C(=O)N([C@@H](C)CO)C[C@@H](C)[C@@H](CN(C)Cc2ccc(Oc4ccccc4)cc2)O3)cc1 | 113*
CNS(=O)(=O)c1ccc(NC(=O)c2cc(-c3cccnc3)nc3ccc(Br)cc23)cc1 | 34
CSc1nc(N)n(-c2cc(Cl)cc(Cl)c2)n1 | 12
C[C@@H]1O[C@@H](OC[C@H]2OC(Oc3c(-c4ccc(OCCO)c(OCCO)c4)oc4cc(OCCO)cc(O)c4c3=O)[C@H](O)[C@@H](O)[C@@H]2O)[C@H](O)[C@H](O)[C@H]1O (stereo partly specified) | -10
C[C@@H]1CN([C@H](C)CO)C(=O)Cc2cc(NC(=O)C3CC3)ccc2O[C@H]1CN(C)C(=O)Nc1ccc2c(c1)OCO2 | -6

structure | NOMO-1 viab
C[C@H]1CN([C@@H](C)CO)C(=O)Cc2cc(NC(=O)C3CC3)ccc2O[C@H]1CN(C)CC1CCCCC1 | 17
C[C@@H]1CN([C@H](C)CO)C(=O)c2cc(NS(=O)(=O)c3ccc(F)cc3)ccc2O[C@@H]1CN(C)Cc1ccncc1 | 13
COc1c(O[C@@H]2O[C@H](CO)[C@@H](O)[C@H](O)[C@H]2O)cc2oc(-c3ccc(O)cc3)cc(=O)c2c1O | 84*
COc1ccccc1OCC(=O)Nc1ccc(C)cc1[N+](=O)[O-] | 23
CC1CC(NC(=S)Nc2ccc(I)cc2F)CC(C)(C)C1 (stereo unspecified) | 71
C[C@@H]1CN([C@@H](C)CO)C(=O)Cc2cc(NC(=O)Cc3ccccc3)ccc2O[C@@H]1CN(C)Cc1ccc(C(F)(F)F)cc1 | 43
COc1ccc(S(=O)(=O)NC2(C(=O)O)CCCCC2)cc1 | 3
COc1ccc(S(=O)(=O)N(C)C[C@@H]2Oc3c(NS(=O)(=O)c4cn(C)cn4)cccc3C(=O)N([C@H](C)CO)C[C@@H]2C)cc1 | -1

structure | NOMO-1 viab
COc1ccc2c(c1)C(=O)N(CCc1ccc(S(=O)(=O)NC(=O)NC3CCCCC3)cc1)C(=O)C2(C)C | 20
C[C@@H]1CCCCO[C@@H](CN(C)Cc2ccccc2)[C@@H](C)CN([C@H](C)CO)C(=O)c2cc(NC(=O)Nc3ccc(F)cc3)ccc2O1 | 46
COc1c(Cl)cc(C(=O)Nc2sc3c(c2C(=O)NCc2cccnc2)CCCC3)cc1Cl | 36
C[C@@H]1CN([C@@H](C)CO)C(=O)c2cc(NC(=O)C3CCCCC3)ccc2O[C@H]1CN(C)Cc1ccc2c(c1)OCO2 | 11
Cc1noc(C)c1NC(=O)N(C)C[C@@H]1Oc2ccc(N(C)C)cc2C(=O)N([C@H](C)CO)C[C@@H]1C | 8
Cc1ccc(-c2noc(CSc3nc(C)cc(C)n3)n2)cc1 | 15
COc1ccc(NC(=O)N(C)C[C@H]2Oc3ccc(NS(=O)(=O)c4cccs4)cc3CC(=O)N([C@@H](C)CO)C[C@@H]2C)cc1 | 4
COc1ccc(NC(=O)N(C)C[C@H]2Oc3ccc(NC(=O)Cn4cnnn4)cc3CC(=O)N([C@H](C)CO)C[C@H]2C)cc1 | 22

structure | NOMO-1 viab
Cc1occc1-c1nnc(SCC(=O)Nc2ccccc2[N+](=O)[O-])n1-c1ccccc1 | 26
C[C@H](CO)N1C[C@H](C)[C@@H](CN(C)C(=O)Nc2ccc(F)cc2)Oc2ccc(NS(=O)(=O)c3ccccc3)cc2C1=O | -5
COc1ccc(S(=O)(=O)N(C)C[C@H]2Oc3c(NC(=O)NC(C)C)cccc3C(=O)N([C@@H](C)CO)C[C@@H]2C)cc1 | -4
Cc1ccc(S(=O)(=O)Nc2ccc3c(c2)C(=O)N([C@@H](C)CO)C[C@@H](C)[C@H](CN(C)CC2CC2)O3)cc1 | 5
COc1ccc(NC(=O)Nc2cccc3c2O[C@H](CN(C)C)[C@H](C)CN([C@@H](C)CO)C3=O)cc1 | -25
C[C@@H]1CN([C@@H](C)CO)C(=O)c2cccc(NS(=O)(=O)c3cccs3)c2O[C@H]1CN(C)Cc1ccc(C(=O)Nc2ccccc2N)cc1 | 39
O=C(CC1(O)C(=O)Nc2ccc(Br)cc21)c1ccc(NS(=O)(=O)c2ccccc2)cc1 (stereo unspecified) | 25
C[C@H]1CN([C@@H](C)CO)C(=O)c2cccc(NC(=O)CCCCCC(=O)Nc3ccccc3N)c2O[C@@H]1CN(C)S(=O)(=O)c1ccc(Cl)cc1 | 103*

structure | NOMO-1 viab
C[C@@H]1CN([C@H](C)CO)C(=O)c2cc(NC(=O)CCCCCC(=O)Nc3ccccc3N)ccc2O[C@H]1CN(C)C(=O)NC1CCCCC1 | -20
CC(=O)Nc1ccccc1NC(=O)Cc1ccccc1[N+](=O)[O-] | 1
C[C@@H]1CN([C@H](C)CO)C(=O)c2cc(NC(=O)Nc3ccc(C(F)(F)F)cc3)ccc2O[C@@H]1CN(C)Cc1ccc(Cl)c(Cl)c1 | 114*
Cc1ccc(S(=O)(=O)N(C)C[C@H]2Oc3ccc(NC(=O)C4CC4)cc3CC(=O)N([C@@H](C)CO)C[C@@H]2C)cc1 | 19
Cc1noc(C)c1S(=O)(=O)Nc1ccc2c(c1)C(=O)N([C@@H](C)CO)C[C@@H](C)[C@@H](CN(C)C(=O)NC1CCCCC1)O2 | 11
Cc1ccc(S(=O)(=O)Nc2cccc3c2O[C@@H](CN(C)Cc2ccccc2)[C@@H](C)CN([C@@H](C)CO)C3=O)cc1 | 5
COc1ccccc1NC(=O)Cn1nnc(-c2cc(OC)c(OC)c(OC)c2)n1 | 33
CCCCCCCCCCC/C=C\C(C)(C)/C=C\CCCC(=O)O | 30

structure | NOMO-1 viab
Cc1ccc(NC(=O)COc2ccc(Cl)cc2Br)c([N+](=O)[O-])c1 | 22
C[C@H](CO)N1C[C@H](C)[C@@H](CN(C)S(=O)(=O)c2cccs2)Oc2ccc(NC(=O)CCN3CCOCC3)cc2C1=O | -12
Cc1noc(C)c1NC(=O)Nc1cccc2c1O[C@@H](CN(C)S(=O)(=O)c1ccccc1)[C@H](C)CN([C@H](C)CO)C2=O | -18
C[C@@H]1CN([C@@H](C)CO)C(=O)c2cc(NC(=O)CCN3CCOCC3)ccc2O[C@H]1CN(C)S(C)(=O)=O | -13
Cc1cc(C(=O)Nc2cccc3c2O[C@H](CN(C)S(C)(=O)=O)[C@@H](C)CN([C@@H](C)CO)C3=O)n(C)n1 | 14
CC(=O)NC(C)c1ccccc1 (stereo unspecified) | 3
C[C@@H]1CCCCO[C@H](CN(C)C(=O)C2CCCCC2)[C@@H](C)CN([C@H](C)CO)C(=O)c2cc(NC(=O)C3CCCCC3)ccc2O1 | 23
Cc1ccc(S(=O)(=O)Nc2c(C)[nH]c(=O)[nH]c2=O)cc1C | 2

structure | NOMO-1 viab
COc1cc2ccc(=O)oc2c(O[C@@H]2O[C@H](CO)[C@@H](O)[C@H](O)[C@H]2O)c1O | -8
Cc1cc(C)c(C#N)c(SCC(=O)Nc2cc(C(F)(F)F)ccc2Cl)n1 | -13
CS(=O)(=O)N(CC(=O)Nc1ccc(F)c(F)c1)c1ccc(Br)cc1 | 18
C[C@H]1CN([C@@H](C)CO)C(=O)c2cc(NS(=O)(=O)c3cn(C)cn3)ccc2O[C@@H]1CN(C)C(=O)NC1CCCCC1 | -7
C[C@@H]1CN([C@@H](C)CO)C(=O)c2cc(N(C)C)ccc2O[C@@H]1CN(C)Cc1ccc(Cl)c(Cl)c1 | 47
COc1ccc(NC(=O)CN2C(=O)COc3ccc(Cl)cc32)cc1 | 9
COc1ccc(CCNc2nc(C)nc3c2sc2nc4c(cc23)COC(C)(C)C4)cc1OC | 18
C[C@@H]1CN([C@@H](C)CO)C(=O)c2cccc(NC(=O)Nc3ccc(F)cc3)c2O[C@H]1CN(C)Cc1ccc(C(F)(F)F)cc1 | 103*

# A section of the results above:
structure | NOMO-1 viab
Cc1ccc(S(=O)(=O)N(C)C[C@@H]2OCCCC[C@@H](C)Oc3ccc(NS(=O)(=O)c4ccccc4)cc3C(=O)N([C@H](C)CO)C[C@@H]2C)cc1 | ?
CCC(=O)c1ccccc1OCCSc1nc(C)cc(=O)[nH]1 | -8

# More compounds
structure | NOMO-1 viab
C[C@@H]1CN([C@H](C)CO)C(=O)c2cc(NC(=O)CCN3CCOCC3)ccc2O[C@@H]1CN(C)C(=O)Nc1cccc2ccccc12 | 12
COc1ccc(-c2cc(C(F)(F)F)n3nc(C(=O)N(C)Cc4cnn(C)c4C)cc3n2)cc1OC | 20
Cc1noc(C)c1S(=O)(=O)Nc1cccc2c1O[C@H](CN(C)Cc1ccccc1)[C@H](C)CN([C@H](C)CO)C2=O | 8
C[C@@H]1CN([C@@H](C)CO)C(=O)c2cccc(NC(=O)c3nc4ccccc4s3)c2O[C@H]1CN(C)Cc1ccc2c(c1)OCO2 | ?
C[C@@H]1CN([C@H](C)CO)C(=O)c2cccc(NC(=O)NC3CCCCC3)c2O[C@@H]1CN(C)CC1CC1 | 16
Cc1noc(C)c1S(=O)(=O)N(C)C[C@H]1Oc2ccc(NS(=O)(=O)c3cn(C)cn3)cc2CC(=O)N([C@H](C)CO)C[C@H]1C | 4
Cc1noc(C)c1NC(=O)N(C)C[C@@H]1Oc2ccc(NS(=O)(=O)c3c(C)noc3C)cc2CC(=O)N([C@@H](C)CO)C[C@@H]1C | 16
CN1CCN(CC(O)COCCC23CC4CC(CC(C4)C2)C3)CC1 (stereo unspecified) | 11

structure | NOMO-1 viab
Cc1noc(C)c1NC(=O)N(C)C[C@@H]1Oc2ccc(NS(=O)(=O)c3ccc(Cl)cc3)cc2CC(=O)N([C@H](C)CO)C[C@H]1C | 16
C[C@@H]1CCCCO[C@H](CN(C)Cc2ccncc2)[C@@H](C)CN([C@H](C)CO)C(=O)c2cc(NS(C)(=O)=O)ccc2O1 | -10
C[C@H](CO)N1C[C@H](C)[C@H](CN(C)Cc2ccc(-c3ccccc3)cc2)Oc2ccc(NC(=O)NC3CCCCC3)cc2CC1=O | 87*
CC(C)N(Cc1nc(-c2ccc(Cl)cc2)no1)S(=O)(=O)c1ccc2ccccc2c1 | 15
Cc1noc(C)c1S(=O)(=O)Nc1ccc2c(c1)CC(=O)N([C@@H](C)CO)C[C@H](C)[C@H](CN(C)S(=O)(=O)c1ccccc1)O2 | 0
Cc1ccc(-c2nn3c(C)nnc3c3ccccc23)cc1S(=O)(=O)NCC1CCCO1 (stereo unspecified) | ?
CC(C)NC(=O)Nc1ccc2c(c1)C(=O)N([C@H](C)CO)C[C@H](C)[C@H](CN(C)C(=O)Cc1ccccc1)OCCCC[C@@H](C)O2 | -6
COc1ccc(-c2csc(NC(=O)c3cc(-c4ccc(C)o4)nc4ccccc34)c2C#N)cc1OC | 21

structure | NOMO-1 viab
O=C(Cn1nc(-c2cccc([N+](=O)[O-])c2)c2ccccc2c1=O)Nc1cccc(C(F)(F)F)c1 | -24
CNC[C@H]1Oc2c(NC(=O)c3cnccn3)cccc2C(=O)N([C@@H](C)CO)C[C@H]1C | -3
Cc1ccc(S(=O)(=O)N(C)C[C@H]2Oc3ccc(NC(=O)Nc4ccc(C(F)(F)F)cc4)cc3CC(=O)N([C@H](C)CO)C[C@H]2C)cc1 | 115*
CC(=O)Nc1ccc(NC(=O)CN(c2ccc(Cl)c(C(F)(F)F)c2)S(C)(=O)=O)cc1 | 99*
CCCCOc1ccc(C(=O)CCN2CCCCC2)cc1 | 41
C[C@H](CO)N1C[C@H](C)[C@H](CN(C)S(=O)(=O)c2ccccc2)Oc2c(NC(=O)Nc3ccc(F)cc3)cccc2C1=O | 27
C[C@@H]1CN([C@@H](C)CO)C(=O)c2cc(NS(=O)(=O)c3cn(C)cn3)ccc2O[C@@H]1CN(C)S(=O)(=O)c1ccccc1 | 3
C[C@@H]1CN([C@@H](C)CO)C(=O)c2cccc(NC(=O)Nc3ccc(F)cc3)c2O[C@H]1CN(C)C | 29
